Screens as filed in PubChem BioAssay.
ClpP mod = qHTS Assay for Activators of ClpP; ATP-dependent Clp protease proteolytic subunit (Bacillus subtilis (strain 168)), P80244; Potency, µM (highest dose often 57.5 µM), inactives show at the top dose activity change, negative = active; purified B. subtilis ClpP, FRET peptide cleavage, 20 min; AID 651965, 2013; 340,000 compounds, 1.9% hits; active = well fitted falling curve with a large enough effect; inconclusive = small, poorly fitted or top-dose-only effect; inactive = no such curve, though single readings can be large or run the other way; note: the source files actives as falling curves though it sought activators and does not explain the sign; nearly all actives have a fitted effect of over 65% in size; many hits overshoot -100%
Target sequence (P80244 whole entry, looked up): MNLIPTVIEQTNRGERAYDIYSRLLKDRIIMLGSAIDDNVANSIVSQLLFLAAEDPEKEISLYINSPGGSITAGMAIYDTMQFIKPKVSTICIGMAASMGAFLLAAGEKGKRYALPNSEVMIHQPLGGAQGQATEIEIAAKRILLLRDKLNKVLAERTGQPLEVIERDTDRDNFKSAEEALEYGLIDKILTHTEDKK
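ClpP 10 microg/mL final, pH 8 Tris/KCl buffer with BSA, glycerol, Tween-20; compound pinned in; FRET-FV substrate; RT 20 min; Ex320/Em430; ΔFRET vs ADEP 5.8 microM, DMSO, no enzyme.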
* hit, by the source's call; u = inconclusive; & = joins results of further samples. Potency is the fitted concentration of half-maximal effect. This is a subset, so the mix of outcomes need not match the whole.

SMILES	ClpP mod
CC(=O)N1c2ccccc2N=C(c2ccc(C(F)(F)F)cc2)C1C(=O)NC1CCCC1 (stereo unspecified)	-0.3%
CC(C)NC(=O)C1(C)CN(S(C)(=O)=O)CC(=O)N1CCCn1ccnc1 (stereo unspecified)	-2.3%
COc1ccc(C(=O)C(OP(=O)(OC)OC)c2ccccc2OC)cc1 (stereo unspecified)	-1.3%
CC1(C(=O)Nc2ccc3c(c2)OCCO3)CSCC(=O)N1C1CCN(Cc2ccccc2)CC1 (stereo unspecified)	1.4%
COc1ccc(C(=O)C(=O)N2CCN(c3ccccc3F)CC2)cc1	-0.6%
CCCCCCCCN1C(=O)[C@H](CC(=O)NCCCN2CCCC2=O)C[C@@]2(C(=O)OC)CC(C)(C)CC=C12	2.1%
COC(=O)C1(C(=O)OC)C[C@H](c2ccc(OC)cc2)N(Cc2ccccc2OC)[C@@H]1c1cccs1	0.4%&-0.1%
CCOC(=O)[C@]12CCCC=C1N(Cc1ccccc1)C(=O)[C@H](CC(=O)NCc1cccc(C(F)(F)F)c1)C2	4.4%
CC1(C(=O)Nc2ccc3c(c2)OCCO3)CN(S(C)(=O)=O)CC(=O)N1Cc1cccc(F)c1 (stereo unspecified)	-3.7%
CCCCOCCCNC(=O)C[C@@H]1C[C@@]2(C(=O)OC)CC(C)(C)CC=C2N(Cc2ccco2)C1=O	1.3%
CCOC(=O)N1CCN(C(=O)C[C@@H]2C[C@@]3(C(=O)OC)CC(C)(C)CC=C3N(Cc3cccc4ccccc34)C2=O)CC1	-0.3%
Cc1cccc(C)c1NC(=O)C(c1ccnc2ccccc12)N1CCN(CCN(C)C)CC1 (stereo unspecified)	-3.0%
COC(=O)[C@@]12C[C@@H](CC(=O)N3CCC(c4ccccc4)CC3)C(=O)N(CCc3ccc(OC)c(OC)c3)C1=CCC(C)(C)C2	2.3%
Cc1cc(N2CCN(C(C(=O)NC3CCCC3)C(C)(C)C)CC2)c2ccccc2n1 (stereo unspecified)	-1.3%
CCCCCCCCN1C(=O)[C@H](CC(=O)NCc2ccc(OC)c(OC)c2)C[C@@]2(C(=O)OC)CC(C)(C)CC=C12	4.6%
Cc1cnc(-c2nc3ccccc3n2C(C(=O)NC(C)(C)C)c2ccncc2)cn1 (stereo unspecified)	4.3%
CCc1c(-c2ccc(Br)cc2)ncn1Cc1cccc(-c2ccccc2)c1	-8.3%
CC(=O)Nc1cccc(-c2nc3ccccc3n2C(C(=O)NC(C)(C)C)C2CC2)c1 (stereo unspecified)	4.4%
Cc1cc2c(cc1C)-n1nnnc1C(N(C)Cc1ccccc1)C(=O)N2 (stereo unspecified)	-10%
O=C(C[C@H]1CC[C@@H](NC(=O)c2ccncc2)[C@@H](CO)O1)NCC1CC1	2.1%
Cc1ccc(S(=O)(=O)N2C(c3cccc(Cl)c3)CC=C(C(=O)O)C2c2cccc(Cl)c2)cc1 (stereo unspecified)	0.6%
CC(=O)N1CCN(C(C(=O)Nc2c(C)cccc2C)c2cccc(F)c2)CC1 (stereo unspecified)	-2.0%
CC1(C(=O)Nc2ccc3c(c2)OCCO3)CSCC(=O)N1C1CC1 (stereo unspecified)	0.4%
COC(=O)C[C@@H]1OC[C@H](CO)N1S(=O)(=O)c1ccc(C)cc1	-0.4%
Nc1sc(-c2ccccc2)cc1C(=O)N1CCN(c2ccccc2)CC1	1.6%
O=C(N[C@H]1CC[C@H](CCNS(=O)(=O)c2ccc(Cl)cc2)O[C@@H]1CO)c1cccc(F)c1	0.2%
CCOC(=O)N1CCN(C(C(=O)NC2CCCC2)c2cccc(OC)c2OC)CC1 (stereo unspecified)	1.3%
CCC(C(=O)Nc1c(C)cccc1C)n1c(-c2cnc(C)cn2)nc2ccccc21 (stereo unspecified)	-19%
Cc1ccc(S(=O)(=O)N2[C@@H](CO)CO[C@H]2CC(=O)c2cccc3ccccc23)cc1	-0.2%
COC(=O)[C@]12CCCCC=C1N(CCc1ccc(OC)c(OC)c1)C(=O)[C@H](CC(=O)NCc1ccccc1)C2	1.2%
Cc1nc(NC(=O)c2ccccc2)sc1-c1cc(C(=O)NCCO)nn1Cc1ccccc1	-2.7%
CC(C)NC(=O)C1(C)CSCC(=O)N1Cc1cccc(F)c1 (stereo unspecified)	-0.5%
COC(=O)C1=CN(c2c(C)cc(C)cc2C)C(N)=C(C#N)C1c1cccc(F)c1 (stereo unspecified)	1.9%
CCC(C(=O)NC1CCCC1)n1c(-c2ccnc3ccccc23)nc2ccccc21 (stereo unspecified)	-4.4%
O=C(C(=O)N1CCN(c2ccccc2)CC1)c1ccc2c(c1)OCO2	0.6%
Cc1cccc(C)c1NC(=O)C1(C)CSCC(=O)N1CCCN1CCOCC1 (stereo unspecified)	0.1%
O=C1c2c(-c3ccc(Br)cc3)noc2CCN1Cc1cn(C2CCCC2)nn1	1.6%
O=C(Nc1ccc(F)cc1)C(CCc1ccccc1)N1CCN(C(=O)c2ccco2)CC1 (stereo unspecified)	0.8%
O=C(NCc1ccccc1)C(c1ccc(C(F)(F)F)cc1)N1CCN(CCN2CCOCC2)CC1 (stereo unspecified)	1.2%
COC(=O)C1(C(=O)OC)C2CCCCC2N(S(=O)(=O)c2ccc(C)cc2)[C@@H]1CC(C)=O (stereo partly specified)	-6.0%
CC(C)NC(=O)C1(C)CN(S(C)(=O)=O)CC(=O)N1CCCN1CCOCC1 (stereo unspecified)	-3.9%
CCCCCNC(=O)C(c1ccnc2ccccc12)n1c(=O)c(-c2cc3ccccc3[nH]2)nc2ccccc21 (stereo unspecified)	-18%
COC(=O)C1=CN(c2ccc(C)cc2)C(N)=C(C#N)C1c1ccc(OC)cc1 (stereo unspecified)	-12%
O=C1C=C(OCCCl)CC(c2cccc(Cl)c2)O1 (stereo unspecified)	-0.3%
O=C(NCc1ccccc1)C1C(c2ccc3c(c2)OCO3)=Nc2ccccc2N1C(=O)c1ccco1 (stereo unspecified)	-16%

A different layout for some results above:
SMILES | ClpP mod
CCC(C(=O)Nc1c(C)cccc1C)n1c(-c2cnc(C)cn2)nc2ccccc21 (stereo unspecified) | -19%
Cc1ccc(S(=O)(=O)N2[C@@H](CO)CO[C@H]2CC(=O)c2cccc3ccccc23)cc1 | -0.2%
COC(=O)[C@]12CCCCC=C1N(CCc1ccc(OC)c(OC)c1)C(=O)[C@H](CC(=O)NCc1ccccc1)C2 | 1.2%
Cc1nc(NC(=O)c2ccccc2)sc1-c1cc(C(=O)NCCO)nn1Cc1ccccc1 | -2.7%
CC(C)NC(=O)C1(C)CSCC(=O)N1Cc1cccc(F)c1 (stereo unspecified) | -0.5%
COC(=O)C1=CN(c2c(C)cc(C)cc2C)C(N)=C(C#N)C1c1cccc(F)c1 (stereo unspecified) | 1.9%
CCC(C(=O)NC1CCCC1)n1c(-c2ccnc3ccccc23)nc2ccccc21 (stereo unspecified) | -4.4%
O=C(C(=O)N1CCN(c2ccccc2)CC1)c1ccc2c(c1)OCO2 | 0.6%
Cc1cccc(C)c1NC(=O)C1(C)CSCC(=O)N1CCCN1CCOCC1 (stereo unspecified) | 0.1%
O=C1c2c(-c3ccc(Br)cc3)noc2CCN1Cc1cn(C2CCCC2)nn1 | 1.6%
O=C(Nc1ccc(F)cc1)C(CCc1ccccc1)N1CCN(C(=O)c2ccco2)CC1 (stereo unspecified) | 0.8%
O=C(NCc1ccccc1)C(c1ccc(C(F)(F)F)cc1)N1CCN(CCN2CCOCC2)CC1 (stereo unspecified) | 1.2%
COC(=O)C1(C(=O)OC)C2CCCCC2N(S(=O)(=O)c2ccc(C)cc2)[C@@H]1CC(C)=O (stereo partly specified) | -6.0%
CC(C)NC(=O)C1(C)CN(S(C)(=O)=O)CC(=O)N1CCCN1CCOCC1 (stereo unspecified) | -3.9%
CCCCCNC(=O)C(c1ccnc2ccccc12)n1c(=O)c(-c2cc3ccccc3[nH]2)nc2ccccc21 (stereo unspecified) | -18%

(continued)
SMILES	ClpP mod
O=C1c2c(-c3ccc(Br)cc3)noc2CCN1Cc1cn(Cc2cccnc2)nn1	0.4%
CCC(C)CN1C(=O)CSCC1(C)C(=O)Nc1ccc2c(c1)OCCO2 (stereo unspecified)	0.4%
CCCCCCCCN1C(=O)[C@H](CC(=O)N2CCN(C(=O)c3ccco3)CC2)C[C@@]2(C(=O)OC)CC(C)(C)CC=C12	2.2%
CCCCCCCCN1C(=O)[C@H](CC(=O)NCc2cccs2)C[C@@]2(C(=O)OC)CC(C)(C)CC=C12	1.7%
CCCNC(=O)N[C@H]1C=C[C@H](CC(=O)NC2CCCCC2)O[C@@H]1CO	-3.1%
CCCCCNC(=O)C(c1cc2ccccc2o1)n1c(=O)c(-c2ccco2)nc2ccccc21 (stereo unspecified)	-25%
CC(C)(C)NC(=O)C(c1ccccc1)n1c(=O)c(-c2ccccc2)nc2ccccc21 (stereo unspecified)	4.3%
CCCCNC(=O)C1C(c2ccc(OC)cc2)=Nc2ccccc2N1C(=O)c1ccncc1 (stereo unspecified)	-3.2%
CC(C)(C)NC(=O)C(c1cccc2ccccc12)n1c(=O)c(-c2ccco2)nc2ccccc21 (stereo unspecified)	u
O=C1C=C(OCCF)CC(c2cccc([N+](=O)[O-])c2)O1 (stereo unspecified)	1.2%
COC(=O)C[C@@H]1CC[C@H](NS(=O)(=O)c2cccc(F)c2)[C@@H](CO)O1	-1.3%
COc1ccc(C(=O)NCCNc2nc3cc(C)cc(C)c3cc2C#N)nc1	-26%
Cc1cccc(C)c1NC(=O)C(c1ccc(-c2ccccc2)cc1)n1c(=O)c(-c2ccco2)nc2ccccc21 (stereo unspecified)	u
CCC(C)CN1C(=O)CN(S(C)(=O)=O)CC1(C)C(=O)Nc1c(C)cccc1C (stereo unspecified)	0.5%
COC(=O)C1=CN(c2ccc(OC)cc2)C(N)=C(C#N)C1c1cccc2ccccc12 (stereo unspecified)	-4.3%
O=C(C(=O)N1CCN(c2ccccc2F)CC1)c1ccccc1	2.1%
O=C(C[C@H]1CC[C@@H]2[C@H](COC[C@H](O)CN2Cc2cccc(F)c2)O1)NCc1cccc(F)c1	-0.1%
O=C(Nc1c(-c2ccccc2)[nH][nH]c1=O)c1ccccc1	-1.2%
COC(=O)[C@@]12C[C@@H](CC(=O)NCc3ccccc3)C(=O)N(CCc3ccc(OC)c(OC)c3)C1=CCC(C)(C)C2	-1.6%
CCCCCCCCN1C(=O)[C@H](CC(=O)NCCCCc2ccccc2)C[C@@]2(C(=O)OC)CC(C)(C)CC=C12	-1.7%
COc1ccc(C(C(=O)NC(C)(C)C)n2c(-c3ccc(C(F)(F)F)cc3)nc3ccccc32)cc1 (stereo unspecified)	4.1%
CCCCCCCCN1C(=O)[C@H](CC(=O)NCc2ccc(OC)c(OC)c2)C[C@@]2(C(=O)OCC)CCC=C12	-1.9%
CC1(C(=O)NCc2ccccc2)CSCC(=O)N1CCCn1ccnc1 (stereo unspecified)	-0.2%
CSCCC(c1nc2ccccc2[nH]1)n1c(-c2ccc3ncccc3c2)nc2ccccc21 (stereo unspecified)	-25%
CCCCOCCCNC(=O)C[C@@H]1C[C@@]2(C(=O)OCC)CCCC=C2N(CCc2ccc(OC)c(OC)c2)C1=O	-1.7%
O=C(Cc1cccnc1)N[C@@H]1CC[C@H](CCn2cc(Cc3ccccc3)nn2)O[C@@H]1CO	-0.1%
O=C(NCc1ccccc1)C(c1ccccc1F)n1c(=O)c(-c2ccccc2)nc2ccccc21 (stereo unspecified)	u
Cc1ccc(S(=O)(=O)N2CC3C(=O)C[C@@H](c4ccccc4Cl)N(S(=O)(=O)c4ccc(C)cc4)C3CC2c2ccccc2)cc1 (stereo partly specified)	0.6%
COC(=O)C1=CN(c2cccc(OCc3ccccc3)c2)C(N)=C(C#N)C1c1ccc(-c2ccccc2)cc1 (stereo unspecified)	-17%
O=C(C[C@H]1CC[C@@H]2[C@H](COC[C@@H](O)CN2Cc2ccc(Cl)cc2)O1)NCCc1ccccc1	-1.6%
Cc1ccccc1CN1C(=O)CSCC1(C)C(=O)Nc1c(C)cccc1C (stereo unspecified)	3.9%
Cc1cccc(C)c1NC(=O)C1C(c2ccc3c(c2)OCO3)=Nc2ccccc2N1C(=O)c1ccccc1 (stereo unspecified)	-15%
CCC(C(=O)NC(C)(C)C)n1c(-c2ccc3c(c2)OCO3)nc2ccccc21 (stereo unspecified)	4.5%
Cc1ccc(S(=O)(=O)N[C@@H](C)CO)cc1	0.3%
O=C(NCc1ccccc1)C(C1CC1)n1c(CSCCOc2ccccc2)nc2ccccc21 (stereo unspecified)	-3.6%
CCCCCCCCN1C(=O)[C@H](CC(=O)NCCc2ccccc2OC)C[C@@]2(C(=O)OCC)CCC=C12	-4.8%
COc1ccc(C(=O)C(=O)N2CCC(Cc3ccccc3)CC2)cc1OC	-1.6%
CC(C)(C)C(C(=O)NCc1ccccc1)N1CCN(CCN2CCOCC2)CC1 (stereo unspecified)	-7.6%
COC(=O)C1=CN(c2ccc(C(C)(C)C)cc2)C(N)=C(C#N)C1c1cccc([N+](=O)[O-])c1 (stereo unspecified)	-0.4%
O=C(NCc1ccccc1)C1C(c2ccccc2)=Nc2ccccc2N1C(=O)c1ccncc1 (stereo unspecified)	-4.3%
Cc1ccc(C)c(N2CCN(C(C(=O)NC3CCCC3)c3ccco3)CC2)c1 (stereo unspecified)	0.0%
Cc1cccc(C)c1NC(=O)C1(C)CSCC(=O)N1CCOc1ccccc1 (stereo unspecified)	-0.6%
O=C(C[C@H]1CC[C@H]2[C@@H](COC[C@@H](O)CN2C(=O)c2cnccn2)O1)NCc1ccc(Oc2ccccc2)cc1	1.1%
CC(C)(C)NC(=O)C(c1cccc2ccccc12)n1c(=O)c(-c2ccccc2)nc2ccccc21 (stereo unspecified)	u
O=C(Nc1ccc2c(c1)OCCO2)C1C(c2ccccc2)=Nc2ccccc2N1C(=O)c1cccnc1 (stereo unspecified)	-19%
COc1cc(C(=O)C(=O)N2CCN(c3ccc(C)cc3)CC2)cc2ccccc12	-2.1%
